YopH PTP inh: YopH tyrosine phosphatase inhibitors, primary screen, biochemical, fluorescence Ex485/Em525; YopH tyrosine phosphatase [Yersinia enterocolitica]; inhibition, %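 (about 10 µM by stock and volumes)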; 140,000 tested, 0.16% active; AID 898, 2007;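 active means inhibition of 50% or more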;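 further: controls were vehicle for no effect and minimum signal wells for full effect; inactives centre near -20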
Arbovirus inh: antivirals against arbovirus infection, primary screen, cell-based, full library, 10K replicate subset | arbovirus infection cell-based antiviral screen | inhibition, % at 10 µM | 200,000 tested, 0.37% active;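 active means inhibition from about 30%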;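 further: bluetongue infection of BSR cells; cell survival read as ATP light after 72 h; 0% = infected wells without compound and 100% = uninfected wells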
RecA intein inh: Mtb RecA intein splicing inhibitors, primary screen, biochemical, fluorescence, HTS; cell-free RecA intein splicing; inhibition, %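 (about 9 µM by stock and volumes)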; 290,000 tested, 0.75% active; in the data active means inhibition above about 30%; inconclusive means no clear call, values can overlap the other calls;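 further: 0% = vehicle wells and 100% = reference inhibitor control wells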
Target sequence (P9WHJ3 whole entry, looked up): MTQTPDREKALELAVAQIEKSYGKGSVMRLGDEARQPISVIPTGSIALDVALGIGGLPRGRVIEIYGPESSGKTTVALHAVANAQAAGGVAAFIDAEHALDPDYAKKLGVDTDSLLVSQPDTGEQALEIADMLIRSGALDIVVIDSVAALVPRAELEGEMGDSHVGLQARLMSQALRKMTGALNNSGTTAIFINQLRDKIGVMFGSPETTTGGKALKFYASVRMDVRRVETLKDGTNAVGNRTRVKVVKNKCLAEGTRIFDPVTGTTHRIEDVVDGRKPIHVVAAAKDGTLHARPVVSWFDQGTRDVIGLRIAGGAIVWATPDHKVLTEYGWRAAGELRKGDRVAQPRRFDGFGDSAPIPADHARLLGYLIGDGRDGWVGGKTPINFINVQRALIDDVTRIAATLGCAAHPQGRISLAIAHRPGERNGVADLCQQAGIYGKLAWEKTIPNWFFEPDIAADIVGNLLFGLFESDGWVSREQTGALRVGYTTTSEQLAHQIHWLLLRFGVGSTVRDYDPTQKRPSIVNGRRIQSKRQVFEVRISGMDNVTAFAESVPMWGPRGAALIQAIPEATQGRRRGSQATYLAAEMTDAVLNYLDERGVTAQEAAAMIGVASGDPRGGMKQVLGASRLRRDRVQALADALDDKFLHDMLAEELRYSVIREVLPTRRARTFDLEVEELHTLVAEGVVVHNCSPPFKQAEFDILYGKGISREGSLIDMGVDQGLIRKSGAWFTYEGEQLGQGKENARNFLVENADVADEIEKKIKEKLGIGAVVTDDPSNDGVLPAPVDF
Mtb H37Rv: M. tuberculosis H37Rv growth inhibitors, H37Rv strain (AID 1626); M. tuberculosis H37Rv growth inhibition; higher % means a stronger effect; inhibition, % at 10 µM, or IC50 in µM where a hit was titrated; 220,000 tested, 0.95% active;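 active means confirmed in a dose series; inconclusive means inhibition above 80% but not taken into the dose series; inactive means below 80% or under 30% at every dose of the series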;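 further: bacteria incubated seven days before Alamar blue readout; 0% = bacteria only wells and 100% = bacteria with antibiotic wells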
Mtb betalactam: beta-lactam sensitization of Mtb H37Rv, H37Rv | M. tuberculosis H37Rv growth with meropenem, percent inhibition; hits of this screen are not shown here | inhibition, % at 25 µM | 330,000 tested, 0.27% active | AID 434955, 2010;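 active means about 74% or more and at least 40 points above the plate without the antibiotic, then above 30% in a dose series; inconclusive means first-round hits that could not be retested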;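 further: growth measured after seven days incubation then overnight dye step; 0% = bacteria only wells and 100% = bacteria with antibiotic; twin plates without the antibiotic show which effects depend on it; some results filed as inactive read as strong as hits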
Arbovirus inh repeat: recorded beside Arbovirus inh, whose call it bears; inhibition, %; measured here: 10K subset replicate screen; many hits read low in the repeat;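 first of two repeat runs on a subset; 0% = infected and 100% = uninfected wells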
* = called active by the depositor; u = inconclusive; x = not tested or not shown.

SMILES	YopH PTP inh	Arbovirus inh	RecA intein inh	Mtb H37Rv	Mtb betalactam	others
Cc1nnc2ccc(-c3ccc(NC(=O)c4cccnc4Cl)cc3)nn12	x	3.3	3.6	-0.5%	-2.4
Cc1cc(NS(=O)(=O)c2ccc(NC(NC(=O)C(C(F)(F)F)C(F)(F)F)(C(F)(F)F)C(F)(F)F)cc2)no1	-49.6	0.4	x	2.7%	x
Cc1c(N=Cc2c(O)n(Cc3ccccc3)c(=O)[nH]c2=O)c(=O)n(-c2ccccc2)n1C	-23.3	-2.4	x	0.0%	0.3
CCOC(=O)c1c(C)c(-c2ccccc2)n(CC(=O)N2CCCC2)c1C	-46.0	2.1	-0.8	36.2%	-0.4	Arbovirus inh repeat=-2.6
CCN(CC)C(=O)Cn1cc(C(=O)C(=O)NCc2ccccn2)c2ccccc21	x	x	-5.2	x	-3.1
O=C(C1CCCN(Cc2ccc(Br)cc2)C1)N1CCCCC1 (stereo unspecified)	x	x	0.2	x	1.8
COc1ccc(OC)c(CN2CCN(Cc3cc(=O)oc4cc(O)ccc34)CC2)c1	x	x	-172.5	x	24.9
O=C(O)C1C2C=CC(C2)C1C(=O)NCc1ccco1 (stereo unspecified)	x	-0.4	x	-8.5%	-0.5
C=CCCCCCCCCc1nc(=S)[nH][nH]1	-23.6	-12.7	-0.4	17.1%	71.1
O=C(Nc1ccncc1)c1ccc2c(c1)S(=O)(=O)c1ccccc1C2=O	x	-1.7	3.3	4.2%	-4.6
Cc1csc(-c2cnn(-c3ccccc3)c2NC(=O)c2cccc(C(F)(F)F)c2)n1	-17.0	-2.0	0.8	1.0%	77.3
Cc1sc(NC(=S)NC(=O)c2ccco2)c(C#N)c1C	x	-1.5	0.2	2.7%	4.6
Cc1cccc(C)c1NC(=O)C1CCCN1C(=O)OC(C)(C)C (stereo unspecified)	x	-3.2	-1.7	3.2%	-6.7
CCNC(=O)Cc1ccc(NS(=O)(=O)c2ccc(F)cc2)cc1	5.5	3.4	x	-1.3%	0.0	Arbovirus inh repeat=9.6
COc1ccc(Nc2nc(N)c([N+](=O)[O-])c(N3CCOCC3)n2)cc1	x	x	3.5	8.5%	14.4
O=C(CNC(=O)c1ccccc1)Oc1cccc(Cl)c1	x	x	10.2	x	-1.9
Cc1sc2ncnc(Sc3ccccc3C(=O)O)c2c1C	x	0.3	-3.3	5.7%	-7.7
O=C1N=C(N2CCCCC2)S/C1=C/C1=Cc2ccccc2OC1	x	2.1	-7.4	0.4%	-0.2
COCCN(C(=O)CSc1nc(-c2ccccc2)cn1N)c1c(N)n(Cc2ccccc2)c(=O)[nH]c1=O	x	x	-0.7	x	-3.4
Cc1cc(-c2sccc2C)nc(-n2cccc2)n1	1.8	3.8	9.2	6.0%	18.9
COc1ccccc1NC(=S)NNC(=O)c1nn(C)cc1Cl	-4.5	5.8	-5.3	-5.7%	8.7
COc1ccc(Cc2nnc(NC(=O)CS(=O)(=O)c3ccc(C)cc3)s2)cc1OC	x	x	0.8	x	-4.3
COc1ccc(OC)c(NC(=O)NNC(=O)COc2ccc(F)cc2F)c1	x	x	-6.1	x	-4.6
COC(=O)c1sccc1NC(=O)Nc1ccc(C)c(C)c1	x	x	5.8	x	-1.2
COc1ccc(C2(CNC(=O)c3ccc(N)cc3)CCCC2)cc1	x	x	1.0	x	5.2
CS(=O)(=O)N(CC(=O)NCc1ccncc1)c1ccc(F)c(Cl)c1	x	2.3	-0.1	2.2%	1.0
COc1cc(C2C(C#N)=C(N)N(Nc3ccccc3)C3=C2C(=O)CC(C)(C)C3)ccc1OCc1ccccc1 (stereo unspecified)	-24.9	-17.5	14.5	u	99.4
O=[N+]([O-])c1ccc(-c2nnc(CNC3CCCC3)o2)cc1	x	9.0	x	-3.4%	-0.1
CCOc1ccc(CCNc2nc3c(c(=O)n(C)c(=O)n3C)n2CC)cc1OCC	-7.5	16.6	-2.6	1.2%	-1.7
COc1cccc(C(=O)NC(C)c2ccc(Br)cc2)c1 (stereo unspecified)	-14.8	-19.1	1.8	15.1%	5.4
CCN(CC)C(=O)Cn1nc(-c2ccc(Cl)cc2)c2ccccc2c1=O	x	x	2.9	x	-4.8
N#CC1=C2SCN(Cc3ccccc3)CN2C(=O)CC1c1ccccc1F (stereo unspecified)	-38.1	0.8	3.3	-1.2%	-5.9	Arbovirus inh repeat=0.7
O=C(COC(=O)c1nc(Cl)ccc1Cl)Nc1ccc2[nH]c(=O)[nH]c2c1	x	x	-4.3	x	-11.8
CCN1CCN(C(=O)C2CCN(c3nnc(C)c4c(C)n(-c5ccc(C)cc5)nc34)CC2)CC1	x	x	-1.6	x	1.7
C=CCOc1ccc(/C(O)=C2\C(=O)C(=O)N(CCN(C)C)C2c2cccs2)cc1 (stereo unspecified)	-14.5	-0.6	1.1	5.8%	-6.1
CC(OC(=O)c1nc(Cl)ccc1Cl)C(=O)c1ccccc1 (stereo unspecified)	x	x	-5.2	x	-0.2
Cc1c(N=Cc2ccccn2)c(=O)n(-c2ccccc2)n1C	-10.9	-6.0	0.6	-6.0%	-1.9
N#C/C(=C\c1ccc(N2CCCC2)c([N+](=O)[O-])c1)c1nc2ccccc2[nH]1	-12.3	-7.7	-1.5	3.3%	0.9
CCN(CC(=O)N1CCCCCC1)S(=O)(=O)c1ccc(Cl)cc1	12.6	8.1	6.5	5.7%	0.2
O=C(CCN1CCCCC1)Nc1ccccc1	x	-1.9	x	-3.7%	-0.8
Cc1cc(C)cc(N(CC(=O)Nc2ccccc2C(=O)N2CCOCC2)S(C)(=O)=O)c1	-16.3	-2.9	-7.4	-7.9%	-1.8
O=S(=O)(c1ccc(NC(=S)NCc2ccco2)cc1)N1CCCCC1	x	x	2.9	1.9%	7.7
CCCn1c(=O)c2c(c3ccccc31)OC(C)C(=O)N2 (stereo unspecified)	-54.3	-0.4	-1.6	-2.2%	-1.6
COc1ccc(C(CNC(=O)CNS(=O)(=O)c2ccc(NC(C)=O)cc2)N2CCOCC2)cc1 (stereo unspecified)	x	x	3.7	x	2.3
O=C(O)Cn1cccc1C(=O)c1ccccc1	-30.3	0.4	0.2	-2.6%	-4.9
CC(=O)Nc1nnc(SCC(=O)N2C(C)CCCC2C)s1 (stereo unspecified)	x	x	-0.8	x	8.8
Cc1cc(-c2nc3ccccc3c(=O)o2)ccc1[N+](=O)[O-]	x	x	4.1	x	6.0
CC(=O)c1ccc(OC(=O)/C=C/c2ccccc2)cc1	x	x	1.6	x	3.2
CCOP(=O)(OCC)/C(=N/OC(=O)c1ccccc1C)C(N)=O	-26.7	4.1	2.6	0.6%	-4.3
Cc1ccccc1NC(=S)NC12CN3CN(CN(C3)C1)C2	x	2.6	x	-1.6%	-3.1
COc1ccc(OCCC(=O)OCC(=O)NCCc2ccccc2)cc1	x	7.5	0.7	-3.5%	-5.8
COc1ccc(CN2C(=NC(=O)C3CCCO3)SC3CS(=O)(=O)CC32)cc1OC (stereo unspecified)	x	x	1.0	x	0.1
CN(C)S(=O)(=O)n1cnc2ccccc21	-5.8	6.3	0.7	0.5%	2.1
COc1ccccc1NC(=O)c1ccc(NC(=O)c2ccco2)cc1	x	x	1.2	x	9.4
Cc1ccc(S(=O)(=O)N2CCC(C(=O)NCCc3ccc(S(N)(=O)=O)cc3)CC2)cc1	-24.5	-1.9	-1.3	-2.1%	-8.0
O=C(NCCN1CCCCC1)Nc1ccccc1F	x	x	-0.2	x	2.8
CCOC(=O)N1CCN(C(=O)C2CCN(S(=O)(=O)N3CCCC3)CC2)CC1	-23.1	10.6	x	-11.8%	9.4
Cc1nc(NC(=O)CSc2nc3ccccc3s2)sc1C(=O)N(C)C	x	x	0.4	x	-9.0
O=C(COc1ccc2ccccc2c1)N[C@@H](C(=O)O)c1ccc(O)cc1	x	x	2.0	x	7.7
C=CCNCCOCCSc1ccc(Cl)cc1	-17.1	-26.1	-1.2	6.5%	-6.5

By substructure, the entries above containing an aryl thioether with sulfur outside any ring (5)
SMILES	YopH PTP inh	Arbovirus inh	RecA intein inh	Mtb H37Rv	Mtb betalactam	others
Cc1sc2ncnc(Sc3ccccc3C(=O)O)c2c1C	x	0.3	-3.3	5.7%	-7.7
COCCN(C(=O)CSc1nc(-c2ccccc2)cn1N)c1c(N)n(Cc2ccccc2)c(=O)[nH]c1=O	x	x	-0.7	x	-3.4
CC(=O)Nc1nnc(SCC(=O)N2C(C)CCCC2C)s1 (stereo unspecified)	x	x	-0.8	x	8.8
Cc1nc(NC(=O)CSc2nc3ccccc3s2)sc1C(=O)N(C)C	x	x	0.4	x	-9.0
C=CCNCCOCCSc1ccc(Cl)cc1	-17.1	-26.1	-1.2	6.5%	-6.5

Next records:
SMILES	YopH PTP inh	Arbovirus inh	RecA intein inh	Mtb H37Rv	Mtb betalactam	others
Cc1cc2nc(N3C(=O)CNC3=S)sc2cc1C	x	-40.9	3.6	u	79.9
O=C(CSc1nccn1Cc1ccccc1)NCc1ccccc1	-25.9	9.0	-0.2	-5.0%	10.7
NC(=O)C1CCN(C(=O)/C(=C/c2ccco2)NC(=O)c2ccccc2)CC1	x	x	-0.3	x	-2.1
Cc1ccc(CNS(=O)(=O)c2ccc3c(c2)n(C)c(=O)c(=O)n3C)cc1	x	6.7	-3.3	-11.6%	-2.5
CCN1CCN(C(=O)CS(=O)Cc2nc(-c3ccc(OC)cc3)oc2C)CC1 (stereo unspecified)	-46.8	-0.7	1.3	3.0%	-8.9	Arbovirus inh repeat=0.0
COc1ccc(S(=O)(=O)N(CCC(N)=O)Cc2ccco2)cc1OC	x	x	0.5	-0.5%	-3.4
CCc1c(C)nc(N)nc1OCC(F)(F)C(F)F	-5.3	0.8	0.6	-0.3%	-4.5
C=CCOc1ccc(CNn2cn[nH]c2=S)cc1OC	-36.6	-3.5	-8.9	-3.4%	-3.6
Cc1ccc2[nH]c3c(c2c1)CCCC3NC(=O)CCl (stereo unspecified)	x	x	0.0	x	90.9
Cc1cc(=O)oc2cc(Oc3ccc([N+](=O)[O-])cc3C(F)(F)F)ccc12	-32.0	x	3.1	12.2µM*	99.3
CCN(CC)CCN=Cc1c(O)n(CCC2=CCCCC2)c(=O)[nH]c1=O	-37.5	10.0	-0.1	0.8%	-0.4
O=C(NCc1cccs1)Nc1cccs1	-17.6	-3.1	-0.7	5.4%	-2.9
CCOC(=O)c1ccc(N2C(=O)CC(N3CCN(C/C=C/c4ccccc4)CC3)C2=O)cc1 (stereo unspecified)	11.1	5.0	x	9.2%	x
COc1ccc2c(c1)c(=O)oc1cc(OCC(=O)N3CCc4ccccc4C3)ccc12	-15.3	-5.8	-2.1	-0.5%	6.9
O=C(Nc1ccccc1)c1ccc(NC2CCCCC2)c(S(=O)(=O)N2CCOCC2)c1	2.2	6.3	2.6	-2.2%	-23.9
O=C(Nc1ccc2c(c1)nc1n2CCN(Cc2ccccc2)C1)c1cccs1	-4.2	-4.6	5.9	1.6%	u
CCOC(=O)C1(Cc2ccc(Cl)cc2)CCN(C(=O)c2cscn2)CC1	x	-0.1	3.1	-1.0%	7.2
COC(=O)c1ccc2c(=O)n(CCN3CCOCC3)c(SCC(=O)NCc3ccccc3)nc2c1	x	2.8	-0.5	8.0%	1.8
CCOC(=O)c1cnc2ccc(OCC)cc2c1NCc1ccccc1OC	-17.1	-3.0	-0.5	11.3%	0.3
NS(=O)(=O)c1ccc(CNS(=O)(=O)c2ccc3c(c2)OCCO3)cc1	x	x	0.1	x	7.8
COc1ccc(/C=N/Nc2nonc2N)cc1OC	37.3	0.6	-1.9	56.1%	48.5
CCOC(=O)CC(=O)Nc1ccccc1C(=O)O	-52.7	1.5	-1.3	-0.3%	8.0
CCOc1cccc(/C(O)=C2/C(=O)C(=O)N(CCOC)C2c2ccncc2)c1 (stereo unspecified)	-0.7	3.8	3.8	-5.7%	2.0
CCc1nnc(NC(=O)C2Cc3ccccc3CN2S(=O)(=O)c2c(C)c(C)cc(C)c2C)s1 (stereo unspecified)	-19.8	-10.3	-0.4	15.2%	67.8
Cc1ccc(-c2csc3nc[nH]c(=O)c23)cc1	x	-0.5	1.7	-5.5%	-4.6

Structures shown so far with a cyano group, in the order listed:
SMILES	YopH PTP inh	Arbovirus inh	RecA intein inh	Mtb H37Rv	Mtb betalactam	others
Cc1sc(NC(=S)NC(=O)c2ccco2)c(C#N)c1C	x	-1.5	0.2	2.7%	4.6
COc1cc(C2C(C#N)=C(N)N(Nc3ccccc3)C3=C2C(=O)CC(C)(C)C3)ccc1OCc1ccccc1 (stereo unspecified)	-24.9	-17.5	14.5	u	99.4
N#CC1=C2SCN(Cc3ccccc3)CN2C(=O)CC1c1ccccc1F (stereo unspecified)	-38.1	0.8	3.3	-1.2%	-5.9	Arbovirus inh repeat=0.7
N#C/C(=C\c1ccc(N2CCCC2)c([N+](=O)[O-])c1)c1nc2ccccc2[nH]1	-12.3	-7.7	-1.5	3.3%	0.9

These rows are one share of the data (hit frequency here may not be typical).
